KCNQ2 inh = KCNQ2 channel blockers in CHO-K1 cells – cell-based, FluxOR thallium flux, B-score, primary screen (AID 2156) | O88943 | 20 min; active compounds read low; only compounds with negative scores are shown here; some inactives read as strong as hits | B-score at 10 µM | 310,000 compounds, 1.1% hits;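 active = fluorescence ratio B-score at most minus 3 library SDs, with starting brightness B-score within 2 library SDs, cut at about -5.5 in these data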
Target sequence (O88943 whole entry, looked up): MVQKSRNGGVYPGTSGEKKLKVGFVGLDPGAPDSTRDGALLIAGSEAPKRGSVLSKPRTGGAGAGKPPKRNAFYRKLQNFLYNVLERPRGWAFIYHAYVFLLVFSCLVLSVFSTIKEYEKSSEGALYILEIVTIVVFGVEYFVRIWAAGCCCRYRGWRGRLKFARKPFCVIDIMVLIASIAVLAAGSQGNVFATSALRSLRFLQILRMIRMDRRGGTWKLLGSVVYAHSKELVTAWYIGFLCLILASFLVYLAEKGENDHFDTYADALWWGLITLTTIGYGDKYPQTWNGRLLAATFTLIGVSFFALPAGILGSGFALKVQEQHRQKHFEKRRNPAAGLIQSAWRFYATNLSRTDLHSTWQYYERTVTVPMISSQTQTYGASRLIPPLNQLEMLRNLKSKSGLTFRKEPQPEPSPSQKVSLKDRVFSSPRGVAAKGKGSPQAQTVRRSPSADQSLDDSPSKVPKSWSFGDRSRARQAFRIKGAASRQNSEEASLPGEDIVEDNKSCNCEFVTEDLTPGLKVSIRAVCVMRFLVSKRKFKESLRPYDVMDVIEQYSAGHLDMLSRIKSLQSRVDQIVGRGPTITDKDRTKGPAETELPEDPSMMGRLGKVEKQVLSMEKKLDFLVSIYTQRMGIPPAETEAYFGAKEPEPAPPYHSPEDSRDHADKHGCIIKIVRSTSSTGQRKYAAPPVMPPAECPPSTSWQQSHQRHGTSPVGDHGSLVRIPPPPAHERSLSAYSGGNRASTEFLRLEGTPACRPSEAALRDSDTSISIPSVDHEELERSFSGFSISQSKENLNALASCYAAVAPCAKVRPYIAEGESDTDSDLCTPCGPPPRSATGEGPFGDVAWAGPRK
KCNQ2 inh baseline = further read-out of KCNQ2 inh, marked with its call; B-score; measured here: initial fluorescence intensity artifact check;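 brightness before thallium and not channel activity; 0 = typical well and far values either way flag optical interference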
Numbers without * were called inactive; i = inactive. An excerpt, so the mix of outcomes need not match the whole.

smiles,KCNQ2 inh,KCNQ2 inh baseline
Cc1cc(=O)oc2cc(NC(=O)CCC(=O)O)ccc12,i,-1.04
O=C(O)c1ncsc1-c1ccccc1,i,-0.89
Nc1c(C(=O)NCc2ccco2)c2nc3ccccc3nc2n1CCc1ccccc1,i,2.41
Cn1c(=O)c2[nH]cnc2n(-c2ccccc2)c1=O,i,0.73
O=C(Cc1ccccc1)N1CCC(C(=O)N2CCN(c3ccc(F)cc3)CC2)CC1,i,-0.23
Cc1ccc(NC(=S)N(CCCN2CCOCC2)Cc2cccs2)c(C)c1,i,0.29
CCn1c(Cc2ccccc2)nnc1SC(C)C(=O)NC1CC1 (stereo not drawn),i,-1.64
CCCc1ccc(C(=O)NC(=O)c2ccccc2O)cc1,i,-0.35

Next entries follow.
smiles,KCNQ2 inh,KCNQ2 inh baseline
O=C(NCc1cccc(C(F)(F)F)c1)C1CC(c2cccc(F)c2)=NO1 (stereo not drawn),i,-1.46
O=S(=O)(Nc1ccccn1)c1cccs1,i,0.04
Cc1cc(N(CN2CCCC2=O)C(=O)c2ccc(OC(C)C)cc2)no1,i,0.69
C=CCn1c(SCC(=O)NC2CC2)nnc1-c1cccc(OC)c1,i,2.88
CC(C)CC(NC(=O)C(COCc1ccccc1)NC(=O)OC(C)(C)C)C(=O)NN (stereo not drawn),i,1
CCN(CC)S(=O)(=O)c1cc(C)ccc1SC,i,0.38
CCCC1=C(C(=O)OCC)C(c2ccco2)C(C#N)=C(N)O1 (stereo not drawn),i,0.33
NC(=O)C1CCN(C(=O)/C(=C/c2ccccc2)NC(=O)c2ccccc2)CC1,i,1.34

Next entries:
smiles,KCNQ2 inh,KCNQ2 inh baseline
COc1ccc(Br)cc1C(=O)NC(=S)Nc1cc(-c2nc3ccccc3[nH]2)ccc1C,i,0.82
O=C(Nc1cc(=O)[nH]c(=O)[nH]1)c1cc(Cl)ccc1Cl,i,-0.45
COCCSc1nnc(NC(=O)C2CC(=O)N(c3ccccc3)C2)s1 (stereo not drawn),i,0.14
Oc1ccc2ccc3[nH]cnc3c2c1,i,-0.08
COC(=O)[C@@]1(Cc2ccccc2)[C@@H]2C(=CC(=O)[C@H]2CC(=O)C(=O)N(C)C)CN1C(=O)c1ccccc1,i,-0.6
COc1ccc(C2(CNC(=O)/C=C\c3ccco3)CCCC2)cc1OC,i,-3.23
CCN1CCN(C(CNS(=O)(=O)c2ccc(C)cc2)c2ccccc2)CC1 (stereo not drawn),i,1.29
Cc1noc(C)c1S(=O)(=O)N1CCCC(C(=O)Nc2ccc(Cl)cn2)C1 (stereo not drawn),i,-0.96

Additional structures
smiles,KCNQ2 inh,KCNQ2 inh baseline
CS(=O)(=O)Nc1ccc(C(=O)NCCSCc2ccco2)cc1,i,-4.67
O=C1NCCCC2c3c(cc(Br)c(O)c3Br)OC12N1CCCCC1 (stereo not drawn),i,0.02
C=CCOc1cccc(/C=N/NC(=O)C(OC)c2ccccc2)c1 (stereo not drawn),i,-1.69
Cc1cccc(N2C(=O)CC(N(C(=O)c3ccco3)c3cccc(C)c3)C2=O)c1 (stereo not drawn),i,-1.03
COc1ccc(CNC(=O)CCC(=O)n2ncc3cc(C)ccc32)cc1,i,0.05
O=C(Nc1ccccc1N1CCN(C(=O)c2ccc(Cl)cc2)CC1)c1cccc([N+](=O)[O-])c1,i,-1.46
COc1cccc(-c2noc(C3CCCN(C(=O)c4cccc(F)c4)C3)n2)c1 (stereo not drawn),i,1.62
O=C(Nc1cc([N+](=O)[O-])ccc1Cl)C(Sc1ccccc1)c1ccccc1 (stereo not drawn),i,0.09

Following part:
smiles,KCNQ2 inh,KCNQ2 inh baseline
Cc1cccc(N2CC(C(=O)Nc3nnc(SCc4cccnc4)s3)CC2=O)c1 (stereo not drawn),i,0.73
CCOC(=O)c1c(C)n(C)c2ccc(OC)c(NS(=O)(=O)CC)c12,i,-0.25
COc1ccc(CSc2cccc3cccnc23)cc1[N+](=O)[O-],i,-0.34
O=[N+]([O-])c1ccc(Nc2nc(N/N=C\c3ccc4c(c3)OCO4)nc(N3CCCCC3)n2)cc1,-5.75*,-2.57*
O=S(=O)(N1CCCCC1)n1c(Cc2ccccc2)nc2ccccc21,i,1.94
Cc1ccc(OCCn2c(=O)cnc3ccccc32)cc1,i,1.04
CCn1c(CSc2ncn[nH]2)nc2cc(C(=O)O)ccc21,i,1.65
CC(C)c1cc(C(=O)N2CCCC(CCC(=O)NCc3ccccc3F)C2)n(C)n1 (stereo not drawn),i,-0.01

4 entries out of the list, arranged by heavy-atom count, rising:
smiles,KCNQ2 inh,KCNQ2 inh baseline
CCn1c(CSc2ncn[nH]2)nc2cc(C(=O)O)ccc21,i,1.65
COc1ccc(CSc2cccc3cccnc23)cc1[N+](=O)[O-],i,-0.34
CCOC(=O)c1c(C)n(C)c2ccc(OC)c(NS(=O)(=O)CC)c12,i,-0.25
O=S(=O)(N1CCCCC1)n1c(Cc2ccccc2)nc2ccccc21,i,1.94

The list goes on.
smiles,KCNQ2 inh,KCNQ2 inh baseline
Cc1ccccc1-n1c(=O)n(Cc2ccccc2)c(=O)c2[nH]cnc21,i,1.24
C=CCNC(=S)N(Cc1ccccc1)Cc1ccc(F)cc1,i,-0.1
CC1(C)CC(NC(=O)C(F)(F)F)CC(C)(C)N1OC(=O)c1ccco1,i,1.35
COc1ccccc1N(Cc1ccccc1)S(=O)(=O)c1cccc(C(=O)Nc2cc(C)ccn2)c1,i,0.22
Cc1ccc(N2C(=O)C(Cl)=C(N3CCCCCC3)C2=O)cc1,i,0.95
Cc1ccc(NC(=O)CSCC(=O)N2CCCc3ccccc32)cc1,i,-0.35
CC(Sc1nnc(-c2cccs2)n1-c1ccccc1)C(=O)NCc1ccc2c(c1)OCO2 (stereo not drawn),i,0.06
Cc1[nH]n(-c2ccccc2)c(=O)c1C=Nc1ccc2[nH]c(=O)[nH]c2c1,i,-2.07

(continued)
smiles,KCNQ2 inh,KCNQ2 inh baseline
Cn1c(=O)cc(SCC(=O)N2CCN(Cc3ccc4c(c3)OCO4)CC2)c2ccccc21,i,0.56
CCOC(=O)C1CCN(C(=O)c2ccc3c(=O)n4nc(Nc5cc(C)ccc5C)sc4nc3c2)CC1,-5.83*,-1.38*
CC(C)(C)n1nnnc1C(c1cccs1)N(Cc1cccnc1)CC1CCCO1 (stereo not drawn),i,0.23
CC(C)c1ccc(/C=C2\CC/C(=C\C=N\N(C)C)C2=O)cc1,i,1.38
Cc1ccc2c(c1)N(CCCC(=O)NCC1COc3ccccc3O1)C(=O)CO2 (stereo not drawn),i,-1.24
COc1ccc(-c2cnc(N)nc2-c2ccc(OCc3ccccc3)cc2O)cc1,i,-0.26
CCOC(=O)c1c(NC(=O)NC(C)(C)C)sc2c1CCN(C)C2,i,-1.13
Cc1ccc2oc(-c3cccc(NC(=O)c4ccc(Br)o4)c3C)nc2c1,i,-0.47

More entries follow:
smiles,KCNQ2 inh,KCNQ2 inh baseline
COc1ccc(NC(=O)CN(C)C(=O)c2ccc(NS(=O)(=O)c3ccc4[nH]c(=O)[nH]c4c3)cc2)cc1,i,-0.59
CC(C)(C)Nc1nc(Cl)nc(Nc2ccccc2)n1,i,2.08
CCOC(=O)C1CCCN(C/C(O)=C(\C#N)c2nc(-c3ccc(Cl)cc3)cs2)C1 (stereo not drawn),i,1.36
O=C(Nc1ccccc1F)C1CCN(S(=O)(=O)c2cccnc2)CC1,i,-0.03
COc1cccc(NC(=O)c2cccc(C(=O)Nc3cccc(OC)c3)n2)c1,i,-2.15
COc1ccc(OC)c(S(=O)(=O)N2CCN(C34CC5CC(CC(C5)C3)C4)CC2)c1,i,-0.01
CC1CCCN(CCSc2ccc(Cl)cc2)C1 (stereo not drawn),i,-0.17
CC1CCCCN1C(=O)c1ccc(C(=O)N2CCCCC2C)cc1 (stereo not drawn),i,0.98

Continuation.
smiles,KCNQ2 inh,KCNQ2 inh baseline
O=C1CCC(Cc2ccccc2)N1 (stereo not drawn),i,1.16
Cc1cccc(NC(=O)c2ccc(CN3CCc4ccccc4C3)cc2)c1C,i,-0.17
CCOc1cccc2cc(C(=O)NCc3ccc(F)cc3)c(=N)oc12,i,0.46
O=c1oc(-c2ccccc2NS(=O)(=O)c2ccc(F)cc2)nc2ccccc12,i,1.12
COc1cc([N+](=O)[O-])ccc1NC(=O)CCN1C(=O)C2C3CCC(C3)C2C1=O (stereo not drawn),i,2.51
NC(=O)c1ccccc1NCC(=O)c1ccc(Cl)cc1,i,0.03
COc1ccccc1CN(Cc1cc2c(C)ccc(C)c2[nH]c1=O)Cc1nnnn1Cc1ccco1,i,1.08
O=C(OCc1nc2scc(-c3ccccc3)c2c(=O)[nH]1)c1cc(Cl)ccc1[N+](=O)[O-],i,6.26

Additional compounds follow:
smiles,KCNQ2 inh,KCNQ2 inh baseline
S=C(NCCc1ccccc1)N1CCN(Cc2ccc(Cl)c(Cl)c2)CC1,i,-0.6
CC(C)[C@H](NC(=O)c1ccco1)C(=O)OCC(=O)Nc1cccc(F)c1,i,-0.01
COc1ccc(C(NC(C)=O)c2ccc3cccnc3c2O)c(OC)c1 (stereo not drawn),i,0.46
O=C(/C=C/c1cccc(F)c1)NCCCn1ccnc1,i,4.58
CCN1CCN(C(=O)c2ccccc2NC(=O)c2ccc(Cl)cc2)CC1,i,0.72
CC(C)NC(=O)COc1cccc2ccccc12,i,1.3
COc1ccc2c(c1)oc(=O)c1c3ccccc3[nH]c21,i,-0.62
CCOC(=O)C1CCCN(C(=O)c2cccc(NC(=O)C(CC)CC)c2)C1 (stereo not drawn),i,0.13

Going on with the list:
smiles,KCNQ2 inh,KCNQ2 inh baseline
O=C(NCc1ccco1)c1ccc(COc2ccccc2Cl)cc1,i,-0.83
Cc1cc(C)cc(OCC(=O)N(Cc2ccc(N(C)C)cc2)C2CCS(=O)(=O)C2)c1 (stereo not drawn),i,2.62
CN(CC(=O)Nc1ccccc1Br)C(=O)c1cccnc1Nc1cccc(C(F)(F)F)c1,i,0.57
CC(CCc1ccccc1)NC(=O)CN1CCN(c2ccccc2)CC1 (stereo not drawn),i,-0.04
O=C(Nc1cccc(Cl)c1)c1cccc(Oc2ccc([N+](=O)[O-])cc2Cl)c1,i,-0.73
COCc1nc2oc3ccc(C)cc3c(=O)c2cc1C(=O)OC,i,-0.48
CCn1cnc2c1c(=O)n(Cc1nnc3n1-c1ccccc1SC3)c(=O)n2Cc1ccccc1,i,-0.09
CC(=O)Nc1ccccc1-c1nc2ccccc2nc1OCC(=O)c1ccc2ccccc2c1,i,-1.61

(continued)
smiles,KCNQ2 inh,KCNQ2 inh baseline
COc1cccc(NC(=O)C(c2ccccc2)N2CCCCC2)c1 (stereo not drawn),i,1.21
COc1cc(OC)c(NC(=O)CNC(=O)Cn2ccc3ccccc3c2=O)cc1Cl,i,1.46
O=C(CSc1ccc(-c2ccncc2)nn1)c1ccc(Cl)cc1,i,1.16
Nc1ccc(C(=O)c2cccs2)cc1[N+](=O)[O-],i,-2.3
COC(=O)c1ccc(C)c(NS(=O)(=O)c2ccc(OC)c(OC)c2)c1,i,0.71
O=C(Nc1ccc(Cl)c(Cl)c1)c1ccc(Cl)c(Cl)c1,i,-1.5
CCOc1ccc(S(=O)(=O)NC2CCCCC2C)cc1 (stereo not drawn),i,-1.17
CCOc1ccc(CCNC(=O)CCS(=O)(=O)c2ccc(C)cc2)cc1OCC,i,-1.08

Laid out differently: results already given.
KCNQ2 inh	KCNQ2 inh baseline	structure
i	1.21	COc1cccc(NC(=O)C(c2ccccc2)N2CCCCC2)c1 (stereo not drawn)
i	1.46	COc1cc(OC)c(NC(=O)CNC(=O)Cn2ccc3ccccc3c2=O)cc1Cl
i	1.16	O=C(CSc1ccc(-c2ccncc2)nn1)c1ccc(Cl)cc1
i	-2.3	Nc1ccc(C(=O)c2cccs2)cc1[N+](=O)[O-]
i	0.71	COC(=O)c1ccc(C)c(NS(=O)(=O)c2ccc(OC)c(OC)c2)c1
i	-1.5	O=C(Nc1ccc(Cl)c(Cl)c1)c1ccc(Cl)c(Cl)c1
i	-1.17	CCOc1ccc(S(=O)(=O)NC2CCCCC2C)cc1 (stereo not drawn)

Continued:
smiles,KCNQ2 inh,KCNQ2 inh baseline
CN(C)c1cc(N/N=C/c2ccccc2C(F)(F)F)nc(N(C)C)n1,i,-0.5
COc1ccc(C2CC2/C(=N/O)c2ccccc2)cc1 (stereo not drawn),i,-0.33
COc1ccc(CCNC(=O)CSC2=NS(=O)(=O)c3ccccc3N2)cc1OC,i,-0.93
O=C(CCl)NC1(C(F)(F)F)C(=O)Nc2c1c(=O)[nH]c(=O)n2-c1ccccc1 (stereo not drawn),i,-0.83
COc1ccc(NS(=O)(=O)c2cccc(NC(=O)CNC(C)=O)c2)cc1,i,-0.56
COC(=O)c1ccsc1NC(=O)c1ccc2c(c1)OCCO2,i,-1.35
COC(=O)c1[nH]c2ccc(C)cc2c1NS(=O)(=O)c1ccc(F)c(C)c1,i,0.15
CCC(C)[C@H](NC(=O)C1CC(=O)N(c2ccc3c(c2)OCCO3)C1)C(=O)NC1CCCC1 (stereo partly drawn),i,-1.39

The listing continues.
smiles,KCNQ2 inh,KCNQ2 inh baseline
CCOC(=O)/C(C#N)=C/c1cn(CCOc2ccc(OC)cc2)c2ccccc12,i,-0.18
O=C(NC1CCCN(CCc2ccccc2)C1)C1CCCC1 (stereo not drawn),-6.77*,0.01*
CC(=O)Nc1nc(-c2ccc(Br)s2)cs1,i,-0.24
Cc1oc(-c2ccc(-c3ccccc3)cc2)nc1CN(CCO)C(C)C,i,-0.38
CCc1ccc(CN(C)C(=O)c2cc(COc3cccc4cnccc34)on2)cc1,i,-0.12
O=C(NCc1ccc2c(c1)OCO2)c1nc(S(=O)(=O)Cc2ccccc2F)ncc1Cl,i,0.55

Screening results from PubChem.
